2A Renilla = Primary qHTS Assay for Foot and Mouth Disease Virus Antivirals against NCGC Sytravon and CBC Compound Libraries: Renilla Luciferase Signal; 120,000 tested, 0.32% active; Potency, µM (doses to about 57.5 µM), for inactives: at the top dose signal change, negative = less light; HEK cells with a luciferase reporter of 2A StopGo recoding; AID 1745857, 2022; active means well fitted falling curve with a large enough effect; inconclusive means small, poorly fitted or top-dose-only effect; inactive means no such curve, though single readings can be large or run the other way; further: nearly all actives have a fitted effect of over 55% in size; overnight with compound
2A firefly = Primary qHTS Assay for Foot and Mouth Disease Virus Antivirals against NCGC Sytravon and CBC Compound Libraries: Firefly Luciferase Signal. HEK cells with a luciferase reporter of 2A StopGo recoding. Potency, µM (titrated, usually from 57.5 µM), for inactives: at the highest dose signal change, negative = less light. 120,000 tested, 0.23% active; active = well fitted falling curve with a large enough effect; inconclusive = small, poorly fitted or top-dose-only effect; inactive = no such curve, though single readings can be large or run the other way; further: nearly all actives have a fitted effect of over 60% in size; overnight with compound
Numbers without * were called inactive; ? = inconclusive; & = joins results of further samples; [ ] = remark or other dose. On the % scale 0 is the no-effect control and ±100 the full control effect; potency means the concentration at half of the fitted maximal effect. These rows are one share of the data, so the mix of outcomes need not match the whole.

SMILES	2A Renilla	2A firefly
CCOc1cc(/C=C(\C#N)c2nc3ccccc3[nH]2)ccc1OC(C)C	-2%	32%
COc1cccc(NC(CNS(=O)(=O)c2ccc(C)cc2)c2ccccc2)c1 (stereo not given)	134%[activator]	?
CCn1c(=O)cc(SCC(=O)NCc2ccc(C)cc2)c2ccccc21	72%[activator]	-8%
Cc1nn(CCCC(=O)Nc2ccccc2C(F)(F)F)c(=O)c2nn(-c3ccccc3)c(C)c12	-11%	-16%
CCCCN(C)Cc1ccccc1OC	0%[1.06 µM]	-2%
CC(C)CCNC(=O)c1ccc(-c2ccccc2)s1	34%[activator]	210%[activator]
Cc1coc2c(C)c3oc(=O)c(CCC(=O)N4CCCCC4)c(C)c3cc12	-4%	-2%
O=C(Nc1ccc(OC(F)(F)F)cc1)NC1COc2ccccc2C1 (stereo not given)	113%[activator]	1%
Cc1cccc(NC(=O)CSc2ncnc3ccccc23)c1C	-4%	-2%
CC(=O)Nc1ccc(NC(=O)Cn2nc(C(=O)Nc3ccc(C)cc3)ccc2=O)cc1	5%	-20%
Cc1ccn2c(Nc3ccc4c(c3)OCCO4)c(-c3ccc(C)o3)nc2c1	26%	114%[activator]
COc1ccc(-c2c(C)nn3c(N4CCN(c5ccccc5F)CC4)cc(C)nc23)cc1OC	-10%	0%
CCC1c2ccsc2CCN1C(=O)/C=C/c1sccc1C (stereo not given)	-3%	8%
COc1cc2c(cc1OC)-c1c(c(C(=O)NCCN(C)C)nn1-c1ccccc1)C2	-4%	3%
Cc1ccc(NC(=O)C2CCCC2)cc1I	44%[activator]	90%[activator]
CCOC(=O)c1c(C)oc2nc(C)nc(NCc3ccc(OC)cc3OC)c12	-6%&17%	-4%&17%
COc1cc(C(=O)N/C(=C\c2cn(C)c3ccccc23)C(=O)NCCO)cc(OC)c1OC	-12%	-8%
COc1cc(C2c3c(-c4ccc(C)cc4)n[nH]c3C(=O)N2c2ccc(F)cc2)ccc1O (stereo not given)	-5%	-18%
CCc1nnc(NC(=O)CSc2nccn2-c2ccc(OC)cc2)s1	?	-24%
O=c1cc(CSc2nnc(-c3ccccc3)o2)nc2sc(C3CC3)nn12	3%	8%
COc1cccc(CN(C)Cc2cc(C)no2)c1OC	1%	16%
CCOc1ccc(C(=O)CSc2nc3cc(C(=O)NCC(C)C)ccc3c(=O)n2CCOC)cc1	-5%	1%
CCn1cc(SCC(=O)Nc2ccc(C)cc2)c2ccccc21	0%	0%
O=C(NC(c1ccccc1)c1ccccc1Br)C(c1ccccc1)C1CCCC1 (stereo not given)	-10%	-4%
Cc1ccccc1NC(=O)Cn1c(=O)n(CCc2ccccc2)c(=O)c2sc3ccccc3c21	-3%	3%

Not a retest: 4 of the compounds above.
SMILES	2A Renilla	2A firefly
CCOc1ccc(C(=O)CSc2nc3cc(C(=O)NCC(C)C)ccc3c(=O)n2CCOC)cc1	-5%	1%
CCn1cc(SCC(=O)Nc2ccc(C)cc2)c2ccccc21	0%	0%
O=C(NC(c1ccccc1)c1ccccc1Br)C(c1ccccc1)C1CCCC1 (stereo not given)	-10%	-4%
Cc1ccccc1NC(=O)Cn1c(=O)n(CCc2ccccc2)c(=O)c2sc3ccccc3c21	-3%	3%

Remaining list, next part
SMILES	2A Renilla	2A firefly
COC(=O)c1cc(NC(=O)CN(c2ccccc2)S(=O)(=O)N(C)C)ccc1Cl	15%	0%
COc1ccccc1-c1coc2cc(OS(C)(=O)=O)ccc2c1=O	?	0%
Cc1cc(C)c(C(=O)Nc2ccccc2)c(SCC(=O)NC2CCCCC2)n1	35%[activator]	-1%
CC(=O)Nc1ccc(-c2nnc(SCC(=O)c3ccc([N+](=O)[O-])cc3)o2)cc1	3%	4%
Cc1ccc(-c2csc(-c3nc(-c4cc(C)ccc4C)cs3)n2)c(C)c1	-4%	9%
CCN(CC(=O)Nc1cccc(OC)c1)C(=O)c1ccc(-c2ccccc2Cl)o1	-2%	28%
O=C(c1cc2ccccc2[nH]1)N(Cc1ccc(F)cc1)C1CC1	3%	25%
O=C(Nc1ccc2c(c1)OCCCO2)c1ccccc1SCc1cccs1	16%	99%[activator]
CSc1ccc(CCNC(=O)CN2C(=O)c3cccnc3Oc3ccc(Cl)cc32)cc1	-7%	7%
CC(C)/C=N/NC(=O)COc1ccc(C#N)cc1	-2%	2%
Cc1ccc(SCC(=O)OCC(=O)c2ccc3c(c2)OCCO3)cc1	4%[1.06 µM]	0%
O=C(Nc1ccc(F)cc1F)C1=C(N2CCOCC2)c2ccccc2S1(=O)=O	-14%	97%[activator]
COCc1cnc2c(c1SCc1cc(OC)cc(OC)c1)c(=O)n(C)c(=O)n2C	-12%	-4%
CCOC(=O)c1c(NC(=O)c2ccc(C)o2)sc2c1CCC(C(C)(C)C)C2 (stereo not given)	-18%	-12%
Cc1cccc(CNc2nc3ccccc3nc2C)c1	-3%[1.06 µM]	?
Cc1cccc(-n2nnnc2SCc2cc(=O)oc3cc(O)ccc23)c1	48%[activator]	4%
O=C(Cc1cccc(C(F)(F)F)c1)NC1CCN(Cc2ccccc2)CC1	-1%	-6%
CC1CCCN(c2nc(-c3ccccc3O)nc3ccccc23)C1 (stereo not given)	-8%	-4%
O=c1c2ccccc2n2c(-c3cccc(F)c3)nnc2n1Cc1ccccc1	-14%	-18%
O=C(Cc1ccsc1)NCc1ccccc1	3%	88%[activator]
COC(=O)c1c(NC(=O)COc2ccc(C(C)C)cc2)sc2c1CCCC2	-16%	-12%
CCOc1ccc(C2C=C(c3cccc(OC)c3)Nc3nnnn32)cc1 (stereo not given)	2%	31%[activator]
CCOC(=O)c1c(C)[nH]c(CCC(=O)NC(C)c2ccccc2)c1C (stereo not given)	10%	-9%
O=C(NC1CCCC1)c1ccc(CSc2nc3cccnc3n2Cc2ccccc2F)cc1	16%	-15%
CCc1nn2c(=O)cc(COC(=O)c3cccc(NC(=O)COc4ccccc4F)c3)nc2s1	13%	88%[activator]
Continuation:
SMILES	2A Renilla	2A firefly
COc1cc(CC(=O)OCCOc2ccc(Cl)cc2Cl)cc(OC)c1OC	46%[activator]	0%
COc1nc(C(=O)NCCC(=O)N(C)C)cc2ccccc12	10%	0%
CCCc1nn2c(=O)cc(CSc3ccccc3NC(=O)c3ccco3)nc2s1	-12%	-18%
O=C(Cc1ccc(F)cc1)N1CCC(c2nc3c(nnn3Cc3ccc(Cl)cc3)c(=O)[nH]2)CC1	13%	-19%
COc1cc(C[C@@H](C)N)c(OC)cc1Br	-19%[129 µM]	-5%[27 µM]
CCNC(=O)CNC(=O)CSc1cc(C)c2cccc(C)c2n1	-4%	-2%
CN(C)C(=O)CN(C)c1ncnc2sc3c(c12)CCCC3	-17%	1%
CN1C(=O)Cc2cc(S(=O)(=O)CCC(=O)NC3CCCCCCC3)ccc21	-14%	-12%
COc1ccc2c(c1)CCc1c(C(=O)Nc3c(C)nn(Cc4ccccc4)c3C)noc1-2	-11%	-10%
CCCCNC(=O)c1cccc(Cl)c1	-5%	31%[activator]
O=C(Nc1ccc(Cl)c(C(F)(F)F)c1)c1ccc2c(c1)CCN2S(=O)(=O)c1ccccc1	-20%	?
Cc1ccc(O)c(NC(=O)CCS(=O)(=O)c2nc(-c3cccs3)cc(C(F)(F)F)n2)c1	2%	-12%
CCOc1ccccc1C(=O)Nc1ccc(OC)c2ncccc12	-1%	3%
O=S(=O)(c1cc(F)cc(F)c1)N1CCN(Cc2ccc3c(c2)CCO3)CC1	-11%	-6%
Cc1ccc(NC(=O)Cn2cc(C(=O)c3ccco3)c3ccccc32)cc1C	37%[activator]	-11%
COc1ccc(C)cc1NC(=O)c1cc(S(=O)(=O)N2CCC(C)CC2)cn1C	0%	-10%
CC1CCN(CC(=O)NCCc2c[nH]c3ccccc23)CC1	-18%	-7%
Fc1ccccc1-c1csc(NCc2ccco2)n1	62%[activator]	200%[activator]
C/C(=N\NC(=O)CCc1ccccc1)c1ccccc1	11%	0%
COc1ccc2cc(-c3nnc(Nc4ccccc4)s3)c(=O)oc2c1	2%	10%
COc1ccc(C)cc1NC(=O)c1ccc(NS(=O)(=O)c2c(C)noc2C)cc1	45%[activator]	-11%
Cc1ccc(-c2noc3ncnc(NC4CCCCC4)c23)cc1	-7%	0%
COC(=O)C1=C(C)N(c2cccc(C)c2)C(=S)NC1c1ccc(C)s1 (stereo not given)	59%[activator]	14%
CCc1cc(=O)oc2cc(OCC(=O)NCCCn3ccnc3)ccc12	-6%	-7%
CCOC(=O)C1CCN(c2ncnc3c2nc2n3CCCCC2)CC1	7%	124%[activator]
Going on with the list.
SMILES	2A Renilla	2A firefly
COc1ccc(OC)c(CNC(=O)CN2N=C(c3ccc(Cl)cc3)CCC2=O)c1	-9%	-21%
COc1ccc(C(CNC(=O)COc2cccc(C)c2C)N2CCCCC2)cc1 (stereo not given)	-5%	-4%
CNC(=O)C1CCN(Cc2cc3ccccc3n2Cc2ccccc2C)CC1	-11%	-21%
CN1C(=O)C2(SCC(=O)N2c2cccc(C(F)(F)F)c2)c2ccccc21 (stereo not given)	-6%	-17%
O=C(O)CCc1ccccn1	2%	0%
Cc1cc(C)c(S(=O)(=O)N2CCN(C)CC2)cc1Br	44%[activator]	9%
COc1ccc(-c2c(C)c3cc(OC(C)=O)ccc3oc2=O)cc1OC	21%	11%
CCOC(=O)CNC(=O)N1CCN(S(=O)(=O)c2ccc3c(ccn3C)c2)CC1	1%	-11%
O=C(Nc1ccccc1)c1nn(C2CCS(=O)(=O)C2)c2c1CCCC2 (stereo not given)	-3%	24%
CCOC(=O)c1c(-c2ccccc2)oc2ccc(N(C(C)=O)S(=O)(=O)c3ccc(CC)cc3)cc12	-8%	-15%
CC(C(=O)NC1CCCC1)N1CCN(Cc2ccccc2)CC1 (stereo not given)	-13%	-10%
COc1ccc(-c2noc(CSc3nc4ccccc4o3)n2)cc1	22%	15%
Cn1c(CC2CCS(=O)(=O)C2)nnc1SCC(=O)Nc1ccc(-c2ccccc2)cc1 (stereo not given)	-8%	-8%
CCN(CCCNC(=O)c1nn(-c2ccc(OC)cc2)c(=O)c2ccccc12)Cc1ccccc1	-9%	-8%
Cn1c(=O)c2[nH]c(NCc3ccc4c(c3)OCO4)nc2n(C)c1=O	11%	13%

Grouped by structure: the compounds so far containing a Cl atom (8)
SMILES	2A Renilla	2A firefly
COC(=O)c1cc(NC(=O)CN(c2ccccc2)S(=O)(=O)N(C)C)ccc1Cl	15%	0%
CCN(CC(=O)Nc1cccc(OC)c1)C(=O)c1ccc(-c2ccccc2Cl)o1	-2%	28%
CSc1ccc(CCNC(=O)CN2C(=O)c3cccnc3Oc3ccc(Cl)cc32)cc1	-7%	7%
COc1cc(CC(=O)OCCOc2ccc(Cl)cc2Cl)cc(OC)c1OC	46%[activator]	0%
O=C(Cc1ccc(F)cc1)N1CCC(c2nc3c(nnn3Cc3ccc(Cl)cc3)c(=O)[nH]2)CC1	13%	-19%
CCCCNC(=O)c1cccc(Cl)c1	-5%	31%[activator]
O=C(Nc1ccc(Cl)c(C(F)(F)F)c1)c1ccc2c(c1)CCN2S(=O)(=O)c1ccccc1	-20%	?
COc1ccc(OC)c(CNC(=O)CN2N=C(c3ccc(Cl)cc3)CCC2=O)c1	-9%	-21%

Exported with each value named: entries from further up.
> CC(C(=O)NC1CCCC1)N1CCN(Cc2ccccc2)CC1 (stereo not given)
  2A Renilla = -13%
  2A firefly = -10%

> COc1ccc(-c2noc(CSc3nc4ccccc4o3)n2)cc1
  2A Renilla = 22%
  2A firefly = 15%

> Cn1c(CC2CCS(=O)(=O)C2)nnc1SCC(=O)Nc1ccc(-c2ccccc2)cc1 (stereo not given)
  2A Renilla = -8%
  2A firefly = -8%

Bioassay records from PubChem.
